Screening data (PubChem BioAssay)
Ran importin = inhibitors of Ran–importin-beta complex formation, primary screen, biochemical, CFP-Ran/YFP-importin-beta FRET, RCC1, cell-free (AID 434961); inhibition, %; hit rate 0.2% among 7,700; CFP-Ran/YFP-importin-beta FRET, cell-free; active compounds read high;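 active = more than half of the replicate wells above 15% inhibition; inconclusive = exactly half above it; inactive = fewer than half above it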;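 note: 0% = DMSO wells and 100% inhibition = RanGDP control wells on each plate; stock of unstated strength diluted about 400-fold; mean of two wells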
* = called active by the depositor; ? = inconclusive. An excerpt; rates above refer to the full screens.

Start of the data: the first 6 records, ahead of the listing:
SMILES	Ran importin
C[C@H](CO)N1C[C@H](C)[C@H](CN(C)C)OCCCC[C@H](C)Oc2ccc(NS(=O)(=O)c3ccc(Cl)cc3)cc2C1=O	1.0
C[C@@H]1CN([C@@H](C)CO)C(=O)CCCn2nncc2CO[C@@H]1CN(C)C	4.4
CNC[C@@H]1Oc2ccc(NC(=O)CCC(F)(F)F)cc2C(=O)N([C@H](C)CO)C[C@@H]1C	-1.5
Cc1noc(C)c1S(=O)(=O)Nc1ccc2c(c1)CC(=O)N([C@@H](C)CO)C[C@H](C)[C@@H](CN(C)C)O2	8.7
C[C@@H]1CN([C@H](C)CO)C(=O)c2cccc(NC(=O)Nc3ccccc3)c2O[C@@H]1CN(C)C(=O)NC1CCCCC1	?
COc1ccc(NC(=O)Nc2cccc3c2O[C@@H](CN(C)S(=O)(=O)c2cccs2)[C@H](C)CN([C@H](C)CO)C3=O)cc1	2.7

All compounds of this part, from the start:
SMILES	Ran importin
C[C@H](CO)N1C[C@H](C)[C@H](CN(C)C)OCCCC[C@H](C)Oc2ccc(NS(=O)(=O)c3ccc(Cl)cc3)cc2C1=O	1.0
C[C@@H]1CN([C@@H](C)CO)C(=O)CCCn2nncc2CO[C@@H]1CN(C)C	4.4
CNC[C@@H]1Oc2ccc(NC(=O)CCC(F)(F)F)cc2C(=O)N([C@H](C)CO)C[C@@H]1C	-1.5
Cc1noc(C)c1S(=O)(=O)Nc1ccc2c(c1)CC(=O)N([C@@H](C)CO)C[C@H](C)[C@@H](CN(C)C)O2	8.7
C[C@@H]1CN([C@H](C)CO)C(=O)c2cccc(NC(=O)Nc3ccccc3)c2O[C@@H]1CN(C)C(=O)NC1CCCCC1	?
COc1ccc(NC(=O)Nc2cccc3c2O[C@@H](CN(C)S(=O)(=O)c2cccs2)[C@H](C)CN([C@H](C)CO)C3=O)cc1	2.7
COc1ccc(S(=O)(=O)Nc2cccc3c2O[C@@H](CN(C)Cc2ccncc2)[C@H](C)CN([C@@H](C)CO)C3=O)cc1	6.6
CC(C)NC(=O)N(C)C[C@H]1OCCCC[C@H](C)Oc2ccc(NC(=O)Nc3ccc(F)cc3)cc2C(=O)N([C@@H](C)CO)C[C@H]1C	1.8
COc1ccc(S(=O)(=O)Nc2ccc3c(c2)C(=O)N([C@H](C)CO)C[C@@H](C)[C@H](CN(C)Cc2ccc(C(=O)O)cc2)O3)cc1	2.3
C[C@@H]1CN([C@@H](C)CO)C(=O)c2cc(NC(=O)c3ccncc3)ccc2O[C@@H](C)CCCCO[C@@H]1CN(C)C(=O)CCC(F)(F)F	-1.8
C[C@@H]1CCCCO[C@H](CN(C)C(=O)c2ccncc2)[C@H](C)CN([C@H](C)CO)C(=O)c2cc(NS(=O)(=O)c3ccccc3)ccc2O1	-1.1
C[C@H](CO)N1C[C@H](C)[C@H](CN(C)C(=O)Nc2cccc3ccccc23)Oc2ccc(NC(=O)CCCN(C)C)cc2C1=O	2.3
CC(C)NC(=O)Nc1ccc2c(c1)C(=O)N([C@H](C)CO)C[C@@H](C)[C@@H](CN(C)C)OCCCC[C@@H](C)O2	4.7
COc1ccc(S(=O)(=O)Nc2cccc3c2O[C@H](CN(C)Cc2ccc(C(=O)O)cc2)[C@H](C)CN([C@@H](C)CO)C3=O)cc1	-3.8
C[C@@H]1CN([C@@H](C)CO)C(=O)c2cc(NC(=O)CCCN(C)C)ccc2O[C@@H](C)CCCCO[C@@H]1CN(C)S(=O)(=O)c1cn(C)cn1	1.7
CNC[C@H]1Oc2ccc(NS(=O)(=O)c3ccccc3)cc2C(=O)N([C@@H](C)CO)C[C@@H]1C	-4.1
C[C@H]1CN([C@@H](C)CO)C(=O)Cc2cc(NC(=O)Cc3ccccc3)ccc2O[C@H]1CN(C)S(=O)(=O)c1cccs1	0.4
C[C@@H]1CN([C@H](C)CO)C(=O)c2cc(NC(=O)NC3CCCCC3)ccc2O[C@H]1CN(C)Cc1ccc2c(c1)OCO2	2.3
C[C@H]1CN([C@@H](C)CO)C(=O)c2cc(NC(=O)Nc3ccc(F)cc3)ccc2O[C@H]1CN(C)Cc1ccncc1	2.8
CNC[C@H]1Oc2ccc(NC(=O)Cn3cnnn3)cc2CC(=O)N([C@@H](C)CO)C[C@@H]1C	5.7
C[C@H](CO)N1C[C@H](C)[C@H](CN(C)S(=O)(=O)c2ccccc2)OCCCC[C@H](C)Oc2ccc(NC(=O)CCC(F)(F)F)cc2C1=O	-0.9
CNC[C@H]1Oc2c(NC(=O)Nc3ccc(C(F)(F)F)cc3)cccc2C(=O)N([C@@H](C)CO)C[C@@H]1C	-4.9
CNC[C@H]1Oc2ccc(NC(=O)Nc3ccc(F)cc3)cc2C(=O)N([C@@H](C)CO)C[C@@H]1C	0.5
CNC[C@H]1Oc2c(NS(=O)(=O)c3c(C)noc3C)cccc2C(=O)N([C@@H](C)CO)C[C@H]1C	3.3
C[C@@H]1CCCCO[C@H](CN(C)C)[C@H](C)CN([C@H](C)CO)C(=O)c2cc(NC(=O)C3CCCCC3)ccc2O1	-4.8
C[C@H]1CCCCO[C@@H](CN(C)Cc2ccc3c(c2)OCO3)[C@@H](C)CN([C@@H](C)CO)C(=O)c2cc(NS(=O)(=O)c3ccccc3)ccc2O1	-2.5
COc1ccccc1CN(C)C[C@H]1OCc2cnnn2CCCC(=O)N([C@H](C)CO)C[C@H]1C	-1.6
C[C@@H]1CN([C@H](C)CO)C(=O)CCCn2nncc2CO[C@@H]1CN(C)C(=O)Nc1ccccc1C(F)(F)F	-1.6
C[C@@H]1CN([C@H](C)CO)C(=O)c2cc(NC(=O)Nc3ccccc3)ccc2O[C@@H]1CN(C)Cc1ccncc1	-1.0
C[C@H]1CN([C@@H](C)CO)C(=O)Cc2cc(NC(=O)CCN3CCOCC3)ccc2O[C@H]1CN(C)C(=O)Nc1cccc2ccccc12	-2.7
Cc1noc(C)c1S(=O)(=O)Nc1ccc2c(c1)C(=O)N([C@H](C)CO)C[C@H](C)[C@H](CN(C)C(=O)Nc1ccccc1)O2	0.1
COc1ccc(S(=O)(=O)Nc2cccc3c2O[C@@H](CN(C)C)[C@@H](C)CN([C@H](C)CO)C3=O)cc1	?
C[C@H]1CN([C@@H](C)CO)C(=O)c2cccc(NS(=O)(=O)c3ccc(Cl)cc3)c2O[C@H]1CN(C)C	3.6
C[C@@H]1CCCCO[C@H](CN(C)C(=O)c2ccccc2)[C@H](C)CN([C@@H](C)CO)C(=O)c2cc(NS(C)(=O)=O)ccc2O1	0.7
C[C@@H]1CCCCO[C@H](CN(C)C(=O)Nc2cccc3ccccc23)[C@@H](C)CN([C@@H](C)CO)C(=O)c2cc(NC(=O)c3ccncc3)ccc2O1	5.9
C[C@@H]1CN([C@@H](C)CO)C(=O)c2cccc(NS(C)(=O)=O)c2O[C@H]1CN(C)Cc1ccc(Cl)c(Cl)c1	4.5
C[C@@H]1CN([C@H](C)CO)C(=O)c2cccc(NC(=O)Nc3ccc(C(F)(F)F)cc3)c2O[C@H]1CN(C)Cc1ccncc1	-7.3
COc1ccc(CN(C)C[C@@H]2Oc3ccc(NC(=O)CCC(F)(F)F)cc3C(=O)N([C@H](C)CO)C[C@@H]2C)cc1	-1.1
C[C@H]1CN([C@@H](C)CO)C(=O)Cc2cc(NC(=O)CCN3CCOCC3)ccc2O[C@H]1CN(C)S(=O)(=O)c1ccccc1	-0.9
CC(C)NC(=O)N(C)C[C@H]1OCCCC[C@@H](C)Oc2ccc(NS(C)(=O)=O)cc2C(=O)N([C@@H](C)CO)C[C@H]1C	0.2
C[C@@H]1CN([C@@H](C)CO)C(=O)c2cc(NC(=O)Nc3ccc(F)cc3)ccc2O[C@@H]1CN(C)C	-0.4
Cc1noc(C)c1S(=O)(=O)Nc1ccc2c(c1)C(=O)N([C@H](C)CO)C[C@H](C)[C@@H](CN(C)C(=O)Cc1ccccc1)OCCCC[C@H](C)O2	-1.7
CNC[C@@H]1Oc2ccc(NC(=O)Nc3c(C)noc3C)cc2CC(=O)N([C@H](C)CO)C[C@@H]1C	-2.5
C[C@H](CO)N1C[C@H](C)[C@H](CN(C)S(=O)(=O)c2cn(C)cn2)Oc2ncc(C#Cc3ccccc3)cc2C1=O	3.8
C[C@H](CO)N1C[C@H](C)[C@H](CN(C)Cc2ccc3c(c2)OCO3)Oc2c(NS(C)(=O)=O)cccc2C1=O	-1.4
CCCC(O)C#Cc1cnc2c(c1)C(=O)N([C@H](C)CO)C[C@H](C)[C@H](CN(C)C(=O)NC(C)C)O2 (stereo partly drawn)	-2.4
C[C@H](CO)N1C[C@H](C)[C@H](CN(C)S(=O)(=O)c2ccc(Cl)cc2)Oc2c(NC(=O)Nc3ccc(C(F)(F)F)cc3)cccc2C1=O	-0.3
C[C@@H]1CN([C@H](C)CO)C(=O)c2cccc(NC(=O)c3ccncc3)c2O[C@H]1CN(C)CC1CC1	-3.5
C[C@H]1CN([C@@H](C)CO)C(=O)c2cccc(NS(=O)(=O)c3cccs3)c2O[C@H]1CN(C)Cc1ccc2c(c1)OCO2	-1.8
C[C@@H]1CN([C@@H](C)CO)C(=O)c2cc(NC(=O)CCCN(C)C)ccc2O[C@@H](C)CCCCO[C@@H]1CN(C)Cc1ccc2c(c1)OCO2	6.0
(more compounds)
SMILES	Ran importin
C[C@@H]1CN([C@@H](C)CO)C(=O)c2cc(NC(=O)CCN3CCOCC3)ccc2O[C@@H]1CN(C)C(=O)Nc1ccccc1	0.7
C[C@H](CO)N1C[C@H](C)[C@@H](CN(C)CC2CC2)Oc2c(NC(=O)c3nc4ccccc4s3)cccc2C1=O	-1.4
C[C@H]1CN([C@@H](C)CO)C(=O)c2cc(NC(=O)NC3CCCCC3)ccc2O[C@H]1CN(C)S(=O)(=O)c1ccccc1	1.1
CC(C)NC(=O)N(C)C[C@H]1OCCCC[C@H](C)Oc2ccc(NC(=O)c3ccncc3)cc2C(=O)N([C@@H](C)CO)C[C@H]1C	2.5
C[C@@H]1CN([C@@H](C)CO)C(=O)Cc2cc(NS(=O)(=O)c3ccccc3)ccc2O[C@H]1CN(C)Cc1ccc2c(c1)OCO2	0.6
C[C@@H]1CCCCO[C@H](CN(C)C(=O)Nc2cccc3ccccc23)[C@H](C)CN([C@@H](C)CO)C(=O)c2cc(N(C)C)ccc2O1	2.2
COc1ccc(S(=O)(=O)N(C)C[C@H]2Oc3c(NC(=O)Nc4c(C)noc4C)cccc3C(=O)N([C@@H](C)CO)C[C@H]2C)cc1	-0.8
C[C@H]1CCCCO[C@@H](CN(C)C)[C@@H](C)CN([C@@H](C)CO)C(=O)c2cc(NC(=O)Cc3ccccc3)ccc2O1	?
Cc1noc(C)c1S(=O)(=O)Nc1ccc2c(c1)C(=O)N([C@H](C)CO)C[C@H](C)[C@H](CN(C)Cc1ccncc1)OCCCC[C@H](C)O2	-0.2
C[C@@H]1CN([C@H](C)CO)C(=O)c2cc(N(C)C)ccc2O[C@@H]1CN(C)Cc1ccncc1	-3.9
C[C@H]1CCCCO[C@@H](CN(C)S(=O)(=O)c2ccccc2)[C@@H](C)CN([C@@H](C)CO)C(=O)c2cc(NS(C)(=O)=O)ccc2O1	0.9
COc1ccc(S(=O)(=O)N(C)C[C@H]2Oc3ccc(NC(=O)Cc4cn(C)c5ccccc45)cc3C(=O)N([C@@H](C)CO)C[C@H]2C)cc1	-2.2
C[C@@H]1CN([C@@H](C)CO)C(=O)c2cccc(NC(=O)C3CCOCC3)c2O[C@H]1CN(C)Cc1ccccc1	-3.3
C[C@@H]1CCCCO[C@H](CN(C)C(=O)CCC(F)(F)F)[C@@H](C)CN([C@@H](C)CO)C(=O)c2cc(NC(=O)Cc3ccccc3)ccc2O1	-2.5
C[C@H](CO)N1C[C@H](C)[C@H](CN(C)S(=O)(=O)c2cn(C)cn2)Oc2ncc(-c3cc4ccccc4o3)cc2C1=O	8.5
C[C@@H]1CN([C@@H](C)CO)C(=O)Cc2cc(NC(=O)CCN3CCOCC3)ccc2O[C@H]1CN(C)C(=O)Nc1ccccc1	0.9
C[C@@H]1CN([C@H](C)CO)C(=O)c2cccc(NC(=O)Nc3cccc4ccccc34)c2O[C@@H]1CN(C)Cc1ccc(C(=O)O)cc1	-2.0
CC(C)NC(=O)Nc1ccc2c(c1)C(=O)N([C@H](C)CO)C[C@@H](C)[C@@H](CN(C)C)OCCCC[C@H](C)O2	-0.8
C[C@H]1CN([C@@H](C)CO)C(=O)c2cc(NC(=O)Cn3cnnn3)ccc2O[C@@H]1CN(C)C(=O)NC1CCCCC1	7.0
CC(C)NC(=O)Nc1ccc2c(c1)C(=O)N([C@H](C)CO)C[C@H](C)[C@H](CN(C)Cc1ccccc1)OCCCC[C@@H](C)O2	-5.2
COc1ccc(NC(=O)Nc2ccc3c(c2)C(=O)N([C@@H](C)CO)C[C@@H](C)[C@H](CN(C)S(=O)(=O)c2ccc(OC)cc2)O3)cc1	?
Cc1noc(C)c1NC(=O)Nc1cccc2c1O[C@H](CN(C)Cc1ccc(C(=O)O)cc1)[C@@H](C)CN([C@H](C)CO)C2=O	-0.2
C[C@H](CO)N1C[C@H](C)[C@@H](CN(C)Cc2ccccc2)Oc2ccc(N(C)C)cc2C1=O	1.0
C[C@@H]1CN([C@H](C)CO)C(=O)Cc2cc(NC(=O)NC3CCCCC3)ccc2O[C@@H]1CN(C)C(=O)Nc1ccc(F)cc1	2.2
COc1ccc(CN(C)C[C@H]2Oc3c(NS(=O)(=O)c4cn(C)cn4)cccc3C(=O)N([C@@H](C)CO)C[C@@H]2C)cc1	-1.4

Some of these compounds in order of count of non-hydrogen atoms, low to high.
SMILES	Ran importin
C[C@H](CO)N1C[C@H](C)[C@@H](CN(C)Cc2ccccc2)Oc2ccc(N(C)C)cc2C1=O	1.0
COc1ccc(CN(C)C[C@H]2Oc3c(NS(=O)(=O)c4cn(C)cn4)cccc3C(=O)N([C@@H](C)CO)C[C@@H]2C)cc1	-1.4
COc1ccc(NC(=O)Nc2ccc3c(c2)C(=O)N([C@@H](C)CO)C[C@@H](C)[C@H](CN(C)S(=O)(=O)c2ccc(OC)cc2)O3)cc1	?
